# From PubChem
# LANA-nucl inh: inhibitors of KSHV LANA binding to nucleosomes. FITC-LANA1-23 / chicken nucleosome fluorescence polarization; stronger effect = lower value. hit rate 0.3% among 51,000. z-score (test concentration not listed);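 active means both repeat wells score below -2 in polarization z-score versus plate sample wells, excluding overly bright wells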;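 further: 100 nL library stock added to about 30 µL; numbers are from one replicate; some results filed as inactive read as strong as hits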
#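 System – purified chicken nucleosomes with FITC-labelled LANA N-terminal peptide (1-23) · Amount – 240 nM purified chicken nucleosomes (480 nM peptide binding sites), final · Also added – 50 nM FITC-LANA1-23 probe · Medium – TEN-BT buffer, pH 7.5 · Incubation – compound with peptide–nucleosome mix 10–45 min at room temperature · Detection – fluorescence polarization, ex 480 nm, em 535 nm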
# Ab BasE inh: blocks the Acinetobacter baumannii siderophore enzyme BasE | purified BasE, fluorescence polarization binding displacement | inhibition, % (no concentration beside the values) | hit rate 0.1% among 84,000 | AID 485350;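 active means both replicates above 25% with normal brightness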;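 further: 0% = negative plate control signal and 100% = positive plate control signal; stock transfer was 100 nL into about 30 µL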
# Active calls of the source: *; nt = no result given; & = joins results of further samples. Not all compounds are listed, so the mix of outcomes need not match the whole.
SMILES,LANA-nucl inh,Ab BasE inh
Cn1cccc1C(=O)OCc1cc(=O)n2cc(Br)ccc2n1,nt,1.3
c1ccc2c(c1)[nH]c1cncnc12,0.58,1.8
Cc1cc(C(=O)N(C)CC(=O)Nc2ccccc2C(F)(F)F)c(C)o1,nt,5.1
Cc1onc(-c2ccccc2Cl)c1C(=O)Nc1ccccc1CC1c2ccccc2CCN1C (stereo not given),-0.096,nt
CCSc1nnc(C2CCCN(S(C)(=O)=O)C2)n1C(C)C (stereo not given),-0.285,-0.5
CCOC(=O)Cc1c(C)[nH]c(C(=O)OCC)c1CC(=O)OCC,nt,0.4
COc1cc(SC)ccc1C(=O)Nc1cccc(-c2nncn2C)c1,0.098,-3.0
O=C(NCc1ccccn1)OCC(F)(F)F,nt,-1.7
CC(C)(C)c1csc(-c2ccc(-c3ccccn3)s2)n1,1.22,-1.7
COc1ccc2c(C)c(CC(=O)O)c(=O)oc2c1,-0.177,5.8
Cc1n[nH]c(=O)c(C#N)c1C,nt,0.2
Cc1cc(C(=O)COc2ncnc3sccc23)c(C)n1C,nt,0.7
COc1ccc(C)cc1NC(=O)NC1CCCCC1C (stereo not given),-0.234,1.1
CC(C)CCNc1nnnc2c1sc1nc(N3CCOCC3)c3c(c12)CCCC3,nt,0.2
Cc1nc2ccc(N=Cc3ccc(Br)cc3)cc2s1,nt,2.6
Cc1nn(-c2ccccc2)c2nc(-c3ccccc3)ccc12,nt,0.9
CCC(=O)Nc1ccc(C(=O)COc2ncnc3ccccc23)cc1,nt,-2.8
CSc1nnnn1-c1cccc2ccccc12,-0.304,-0.2
O=C(CCNC(=O)c1ccccc1Cl)NC1=NCCS1,nt,-0.6
CC1=CC(C)(C)N(C(=O)CN2C(=O)c3ccccc3C2=O)c2ccccc21,nt,-1.7
CCn1c(C)cc(C(=O)O)c1C,nt,-4.9
CCc1cc(C(=O)O)on1,-0.885,0.7
O=C(/C=C/c1ccccc1)OCC1CCCN2CCCCC12 (stereo not given),-0.008,nt
CNC(=O)c1ccccc1-c1nc(-c2ccc(Cl)cc2)no1,-1.2,1.5
NC(=O)CCN1CCCC1C(N)=O (stereo not given),nt,-0.4
O=C1NC(=Nc2ccccc2)/C(=C/c2cccs2)S1,-1.14,2.9
Cn1c(O)c(N=O)c2ccccc21,2.02,3.1
CC1CC(C)CN(S(=O)(=O)c2ccc(C(=O)NCCCn3ccnc3)cc2)C1 (stereo not given),nt,0.6
CCOC(=O)c1c(NC(=O)c2onc(C)c2Cl)sc(C)c1C,0.0745,1.6
O=C(O)CSc1n[nH]c(-c2cccs2)n1,nt,1.1
O=S(=O)(Cc1ccccc1)NC(c1ccccc1)c1nnc(-c2ccccc2)o1 (stereo not given),0.197,2.0
CC(C)CCCNc1nc(N2CCOCC2)nc(N2CCOCC2)n1,-0.174,2.3
COCCn1cnc2c1c(=O)n(CC(=O)OCC(=O)NC1CCCC1)c(=O)n2Cc1ccccc1,nt,-0.5
FC(F)(F)c1ccc2nnn(OCc3nnc(-c4ccccc4)o3)c2c1,nt,0.8
O=C(NCCCNC1CCCCC1)c1ccc(/C=N/O)nc1,-0.63,2.4
N#C/C(=C(/O)c1cc2ccccc2o1)c1nc2ccccc2s1,nt,4.4
Cc1ccc(C)n1-c1ccc(C(=O)N/N=C/c2ccncc2)cc1,nt,1.2
CCOC(=O)Cn1nc(-c2nonc2N)nc1-c1nonc1N,-0.046,3.2
Cn1c(=O)n(C2(C)CSC2)c2ccccc21,nt,-0.9
O=C1NC2(CCCCC2)C(=O)N1c1ccc(Cl)cc1,-0.429,-0.5
CN(c1ccccn1)S(=O)(=O)c1cc(Cl)ccc1Cl,nt,0.5
COc1ccccc1OCC(O)CN1CCN(CC(=O)Nc2c(C)cccc2C)CC1 (stereo not given),0.039&-0.281&-0.728&0.132,1.3
CCOC(=O)c1nnc(-c2ccc3c(c2)OCO3)o1,0.395,1.6
CCC1CCc2sc(C(=O)N=c3sccn3C)cc2C1 (stereo not given),nt,-2.5
CCCN(CCC)C(=O)Nc1ccc(CC)cc1,1.63,-1.7
CC(O)c1ccc(OCc2c(F)cccc2Cl)cc1 (stereo not given),-0.744,nt
Cc1ccccc1CNC(=O)CCC(=O)N1CCSc2ncccc21,nt,-3.9
CCc1cc2c(SCC(=O)Nc3ccc(S(=O)(=O)N4CCOCC4)cc3)ncnc2s1,nt,-1.1
O=S(=O)(c1ccc2ccccc2c1)N1CCCCC1,nt,-0.2
O=C1CCS(=O)(=O)CC1,0.196,2.4
# New compounds follow:
SMILES,LANA-nucl inh,Ab BasE inh
CN1C(=O)/C(=C/c2ccco2)N(C)C1=S,-1.17,1.2
N#Cc1ccc(NC(=O)c2nc3ncccn3n2)cc1,0.284,1.1
C=CCn1c(C)cc(C(=O)COC(=O)Cn2[nH]c(=O)c3ccccc3c2=O)c1C,nt,-1.3
CN(C(=O)COc1cccc(CO)c1)c1ccccc1,0.0675,1.3
C=CCn1c(N)c(C#N)c2nc3ccccc3nc21,nt,-6.2
O=C(Cn1c(C(F)(F)F)nc2ccccc21)NN=C1CCCC1,nt,5.3
Cc1ccc(-c2nnc(SCC#N)nc2-c2ccc(C)cc2)cc1,nt,-2.0
CCOc1ccc(C(=O)C(C)Sc2nc(-c3ccco3)c(C#N)c(=O)[nH]2)cc1 (stereo not given),nt,0.9
CC1CN(Cc2nc3c(Br)cc(Br)cc3c(=O)[nH]2)CC(C)O1 (stereo not given),nt,1.4
Cc1cc[n+](CC(=O)N2CCCCC2)cc1,0.449,2.9

# An excerpt from above in order of their number in LANA-nucl inh, highest first.
Structure	LANA-nucl inh
N#Cc1ccc(NC(=O)c2nc3ncccn3n2)cc1	0.284
COc1cc(SC)ccc1C(=O)Nc1cccc(-c2nncn2C)c1	0.098
CCOC(=O)Cn1nc(-c2nonc2N)nc1-c1nonc1N	-0.046
COc1ccc2c(C)c(CC(=O)O)c(=O)oc2c1	-0.177
CC(O)c1ccc(OCc2c(F)cccc2Cl)cc1 (stereo not given)	-0.744

# (more compounds)
SMILES,LANA-nucl inh,Ab BasE inh
O=c1[nH]nc(SCCS(=O)(=O)c2ccc(F)cc2)n1Cc1ccco1,nt,0.9
O=C(OCC(=O)N1CCN(c2ccccc2)CC1)c1cccc(F)c1,nt,2.1
CCOC(=O)c1oc2ccccc2c1COC(=O)c1cccc(C#N)c1,nt,2.5
CCCCC(C)(O)C/C=C/[C@H]1[C@H](O)CC(=O)[C@@H]1CCCCCCC(=O)O (stereo not given in full),-0.444,-2.9
Cc1ccc2cc(C#N)c(SCC(=O)N3CCCC3)nc2c1,-0.621,0.9
CC(O)(CC(=O)O)C12CC3CC(CC(C3)C1)C2 (stereo not given),-0.372,0.8
O=C(/C=C/c1ccccc1)NC(=S)N1CCCCC1,0.038,0.6
C=CCNC(=O)COc1ccccc1,-0.23,3.4
NC(=O)Cn1c(CN2CCC(Cc3ccccc3)CC2)nc2ccccc2c1=O,nt,2.0
O=C(O)/C=C/C(=O)N1CCN(c2ccc(C(F)(F)F)cn2)CC1,-1.32,1.4
CN(C)c1ccc2c3c(ccc(N(C)C)c13)[C@](O)(C(F)(F)F)O[C@]2(O)C(F)(F)F,nt,1.5
O=C(Nc1nnc(C2CCCCC2)s1)C1CC(=O)N(c2ccccc2)C1 (stereo not given),-0.265,-1.6
CCc1ccc(CNC(=O)c2cnc(N3CCCC3)nc2)cc1,0.405,-3.7
OC1C=CSc2nc3ccccc3n21 (stereo not given),-1.07,2.8
C#CCSc1nc(COC)cc(=O)[nH]1,0.2,0.2
O=C(CNCCCN1CCOCC1)Nc1cccc(C(F)(F)F)c1,nt,-1.9
Cc1nc(C(F)(F)F)ccc1C(=O)Sc1nnc(-c2ccc(C(F)(F)F)nc2C)o1,nt,-0.6
Cc1nn2c(-c3cccc(NC(=O)CN4CCOCC4)c3)nnc2c2ccccc12,1.7,-3.0
CCN(CC)CC(=O)N1N=C(c2cccs2)CC1c1ccccc1O (stereo not given),0.322,-5.6
Nc1nc2c(C(=O)NCc3ccncc3)nnn2c2ccccc12,0.416,2.1

# 4 of the compounds above, field by field:
molecule: Cc1ccc(-c2nnc(SCC#N)nc2-c2ccc(C)cc2)cc1
  LANA-nucl inh = nt
  Ab BasE inh = -2.0

molecule: CCOc1ccc(C(=O)C(C)Sc2nc(-c3ccco3)c(C#N)c(=O)[nH]2)cc1 (stereo not given)
  LANA-nucl inh = nt
  Ab BasE inh = 0.9

molecule: CC1CN(Cc2nc3c(Br)cc(Br)cc3c(=O)[nH]2)CC(C)O1 (stereo not given)
  LANA-nucl inh = nt
  Ab BasE inh = 1.4

molecule: Cc1cc[n+](CC(=O)N2CCCCC2)cc1
  LANA-nucl inh = 0.449
  Ab BasE inh = 2.9

# Later entries.
SMILES,LANA-nucl inh,Ab BasE inh
CCN(CC1COc2ccccc2O1)C(=S)Nc1ccccc1 (stereo not given),0.27,4.0
CCn1c(-c2ccccc2)cnc1SCC(=O)N(C)C1(C#N)CCCCC1,nt,0.2
Cc1cc2cc(CN(C(=O)N(C)C)C3CCCC3)c(Cl)nc2cc1C,-0.15,-3.0
COc1cc2cc(C(=O)Nc3ccccc3)c(N)nc2cc1OC,0.431,-1.0
Cc1ccc(C)c(NC(=O)Cc2nc(CSc3nnc(-c4cccs4)o3)cs2)c1,nt,-0.7
COc1ccc(C(=O)CSC2=C(C#N)C(C)(C)C(C#N)=C(N)N2)cc1,nt,-0.3
Oc1ccc(O)cc1,0.109&0.679,4.7
Cc1ccc(CNc2ccc(N3CCOCC3)c(Cl)c2)s1,nt,2.1
Cn1c(SCC(=O)NC(=O)Nc2ccccc2F)nc2cc(S(N)(=O)=O)ccc21,nt,-0.4
Cc1cccc(NC(=S)Nn2c(O)c(C)sc2=S)c1,-1.67,2.0
COC(=O)c1ccc(NCc2cc(=O)n3ccsc3n2)cc1,nt,-2.5
COCCN=c1scc(C)n1/N=C/C1CC2C=CC1C2 (stereo not given),nt,0.6
CN(C)c1ccc(C(=O)N2CCN(C(c3ccccc3)c3ccccc3)CC2)cc1,1.75,-1.1
COc1ccc2c(C)c(CCC(=O)N3CCCCC3)c(=O)oc2c1,2.7,-4.7
CCOC(=O)c1cnc(SCC(=O)OCC(=O)Nc2sc3c(c2C#N)CCC3)nc1N,nt,-8.0
CCOC(=O)/C(C#N)=C/c1cc(Br)cs1,-0.263,-2.2
Cc1ccc(-c2csc(=Nc3c(C)n(C)n(-c4ccccc4)c3=O)n2CCO)cc1,-0.0785,-0.7
CCCc1cc(=O)n(CC(=O)N2CCCc3ccccc32)c(-n2nc(C)cc2C)n1,1.74,-0.8
CCn1cc(P(=Nc2ccc(C(=O)O)cc2)(N2CCOCC2)N2CCOCC2)c2ccccc21,nt,0.0
COc1cccc(OC)c1C(=O)c1cc[n+](C)cc1,nt,-1.9
CNS(=O)(=O)c1cccc(C(=O)NCC(c2ccco2)N(C)C)c1 (stereo not given),nt,-0.6
C=CCN1CCN(C(=O)c2cccc(C)c2)CC1,-0.959,-0.1
Cc1cc2c(ncn2Cc2ccccc2)c(N)c1C,-0.238,nt
Cc1cc(C(=O)Oc2ccccc2Cc2ccccc2)on1,nt,-1.8
N#Cc1ccc(NCC(=O)Nc2ccc(S(=O)(=O)N3CCCCC3)cc2)cc1,nt,1.0
COc1ccc(NC(=O)COc2cc(=O)n(C)c3ccccc23)cc1OC,0.406,2.1
CC(C)OC(=O)CSc1n[nH]c(-c2cccnc2)n1,1.34,-2.0
C=CCSc1nnc(Cn2c(=O)sc3ccccc32)n1-c1ccccc1,1.59,-1.5
Clc1ccc(-c2ncnn2-c2ccc(Br)nc2)cc1,1.2,-3.5
O=C(OCCCN1CCOCC1)c1ccc(O)cc1O,-0.0655,-1.9
C=CCN(CC=C)S(=O)(=O)c1ccc(NC(=O)c2cccnc2)cc1,0.282,-1.0
O=C(CSc1nncc(=O)[nH]1)NCc1ccccc1,-0.962,4.0
CCCCCCCCCCCCC(O)C(=O)O (stereo not given),-0.836,-1.0
CCOC(=O)N1CCC(NC(=O)c2ccc3c(Cl)c4c(nc3c2)CCCC4)CC1,1.98,-4.4
N/N=C(/Cn1nnc(N2CCCCC2)n1)c1ccc(Cl)cc1,nt,1.2
O=C1NC(=O)/C(=C\c2ccc(N3CCCC3)c(F)c2)N1,nt,0.0
CCOc1ncccc1C(=O)Oc1ccc(C(=O)OC)cc1OC,nt,1.0
S=c1n(CN2CCCCC2)cnn1CN1CCCCC1,nt,2.1
Cc1nc(NC(=O)CSc2nc3cccnc3n2C2CCCCC2)sc1C,0.193,3.4
Cc1cc(CN2CCN(CCC#N)CC2)c(O)c(C2(C)CCCCC2)c1,-0.691,-1.7
CCC(CC)NC(=O)/C=C/c1ccccc1,0.249,3.4
CCCc1cc(C(=O)NC2CCCCC2)no1,0.191,0.7
CCN1C(=O)c2ccc(C(=O)NCc3ccccc3)cc2C1=O,-0.186,2.7
CC(O)C(C(=O)O)N1C(=O)c2ccccc2C1=O (stereo not given),nt,0.1
CCN1C(=O)C(=Cc2cn(Cc3c(F)cccc3Cl)c3ccccc23)C(=O)N(CC)C1=S,nt,1.6
COc1ccc2oc(=O)cc(CN3CCCc4ccccc43)c2c1,0.572,0.4
CCOc1ccc(-c2cc(C(=O)N3CCN(C(=O)c4ccco4)CC3)[nH]n2)cc1,-0.284,-2.0
CCOC(=O)c1cnc(SCC(=O)OCCCn2c(=O)[nH]c3ccccc32)nc1N,nt,3.6
CCOC(=O)c1ccc2c(c1)NC(CC(=O)Nc1ccccc1C)C(=O)N2CC (stereo not given),nt,-1.6
CN1C(=O)CCC1(O)c1ccccc1 (stereo not given),-0.137,nt
# (next part)
SMILES,LANA-nucl inh,Ab BasE inh
COCCCn1c(C)cc(C(=O)COC(=O)C23CC4CC(CC(O)(C4)C2)C3)c1C,nt,-0.8
CC(C)c1cc(NC(=O)C(C)(C)C)cc(C(C)C)c1O,1.3,0.0
CCCc1cc(N)on1,nt,1.6
CC(C)N(Cc1ccccc1)S(=O)(=O)c1ccc2ccccc2c1,nt,-0.6
